Vaccinia Venus: inhibitors of vaccinia virus (Venus reporter); 0.46% of 330,000 active; Potency, µM (top dose mostly 36.5 µM), without a hit: at the top dose activity change, negative = inhibition, hits mostly inhibitors; Vaccinia virus Venus reporter expression, fluorescence; active means well fitted inhibition curve with a large enough effect; inconclusive means small, poorly fitted or top-dose-only effect; inactive means no such curve, though single readings can be large or run the other way; tested in A549 cells; further: nearly all actives have a fitted effect of over 30% in size; inactives centre near -10
VACV mCherry inh: inhibitors of vaccinia virus infection (mCherry reporter signal) | AID 720579 | Potency, µM (doses to about 36.5 µM), without a hit: top-dose activity change, negative = inhibition, actives largely listed as inhibitors | Vaccinia virus mCherry reporter infection, fluorescence; about a quarter of the inactives have no number | 0.63% of 310,000 active; active = well fitted inhibition curve with a large enough effect; inconclusive = small, poorly fitted or top-dose-only effect; inactive = no such curve, though single readings can be large or run the other way; tested in A549 cells; further: nearly all actives have a fitted effect of over 35% in size; inactives centre near -10
The depositor's hits bear a star; i = inactive; ? = inconclusive; · = not tested or not shown; & = joins results of further samples; [ ] = remark or other dose. On the % scale 0 is the no-effect control and ±100 the full control effect; potency means the concentration at half of the fitted maximal effect.

SMILES	Vaccinia Venus	VACV mCherry inh
COc1ccc(NS(=O)(=O)c2ccc(NS(=O)(=O)c3cccs3)cc2)cc1	-5.2%	i
C/C(=N\Nc1nnc2c3ccccc3n(C)c2n1)c1ccc(C)o1	-7.1%	-26.7%
CCN(CC(=O)Nc1ccc(C(C)=O)cc1)CC(=O)Nc1ccc2c(c1)OCCO2	-2.6%	i
CCOc1ccc(S(=O)(=O)N(CC(=O)Nc2ccc3c(c2)OCO3)c2ccccc2)cc1	-5.9%	-4.5%
CC(NC(=O)c1cccs1)c1ccc2c(c1)OCO2 (configuration not stated)	-11.8%	-1.4%
CC1CCCC(C)N1NC(=O)Cc1ccccc1 (configuration not stated)	-12.4%	-7.6%
Cc1cc(C)n(Cc2cc(C(=O)O)c3ccccc3n2)n1	-6.4%	i
C[C@H]1CN([C@@H](C)CO)C(=O)c2cc(C3=CCCCC3)cnc2O[C@@H]1CN(C)C(=O)Cc1ccccc1	?	-19.5%
O=C(CCNC(=O)Cn1ccc2ccccc2c1=O)NCc1ccc(F)cc1Cl	-9.2%	i
CCCC(CCC)C(=O)Nc1cccc(-c2nc3cccnc3s2)c1	-19.1%	-22.3%
O=C(COC(=O)c1ccccn1)Nc1cccnc1Cl	-5.0%	-6.5%
Cc1cccn2c(=O)c3cc(C(=O)NC4CCCC4)c(=N)n(CCCN4CCOCC4)c3nc12	-14.9%	-0.9%

The list goes on (4 carried over from the part before).
SMILES	Vaccinia Venus	VACV mCherry inh
O=C(CCNC(=O)Cn1ccc2ccccc2c1=O)NCc1ccc(F)cc1Cl	-9.2%	i
CCCC(CCC)C(=O)Nc1cccc(-c2nc3cccnc3s2)c1	-19.1%	-22.3%
O=C(COC(=O)c1ccccn1)Nc1cccnc1Cl	-5.0%	-6.5%
Cc1cccn2c(=O)c3cc(C(=O)NC4CCCC4)c(=N)n(CCCN4CCOCC4)c3nc12	-14.9%	-0.9%
Cc1ccc(Cl)cc1NCc1nnc2n1CCCCC2	1.0%	5.8%
CCC(=O)c1cc2c(cc1NC(=O)c1ccccc1F)OCCO2	4.8%	8.1%
O=C(COC(=O)c1ccc(S(=O)(=O)N2CCCC2)cc1)Nc1ccc(N2CCOCC2)cc1	-3.2%	5.7%
Cc1ccc(F)cc1S(=O)(=O)NCc1ccc(N2CCN(C)CC2)cc1	4.0%	i
Nc1c(C(=O)Nc2ccccc2F)sc2nc(-c3ccco3)ccc12	-13.7%	-25.3%
O=C(O)CCCN1C(=O)C2C3CCC(C3)C2C1=O (configuration not stated)	0.2%	-11.8%
Cc1nc2ccc(C(=O)NC(C)(C)C)cn2c1N(C)C(=O)CCc1ccccc1	-1.6%	30.7%[activator]
CCCCCn1nc(C(=O)N(CC)c2c(N)n(CCCC)c(=O)[nH]c2=O)c2ccccc2c1=O	-8.0%	-13.1%
O=c1[nH]c2ccccc2c(O)c1Cc1ccccc1	-10.0%	-19.0%
Cc1ccc(-n2nc(C)c3cc(C(=O)O)sc32)cc1	-5.7%	·
CCCn1c2ccccc2c2cnn(CC(=O)NC3CCN(Cc4ccccc4)CC3)c(=O)c21	-11.2%	i
C/C(=N\N=C(N)N)c1ccc(Cl)cc1	?	-17.5%
CN(CC(=O)NCc1ccc(Cl)cc1)S(=O)(=O)c1ccc2c(c1)c(=O)n(C)c(=O)n2C	-16.9%	-11.0%
CSCc1ccc(C(=O)N2CCCC(Nc3ccc(F)cc3)C2)o1 (configuration not stated)	-17.2%	?
Cc1ccc(-c2ccc(=O)n(CC(=O)N3CCN(c4cccc(C)c4)C(C)C3)n2)cc1 (configuration not stated)	9.7%	0.2%
Nc1ccc(Nc2nc(-c3cccs3)cs2)cc1	-3.2%	-24.3%
CC(=O)c1nc(N2C(=O)CC(Cc3cc(C)cc(C)c3)C2=O)sc1C (configuration not stated)	0.0%	-15.1%
O=C(Nc1ccc(S(=O)(=O)N2CCC(c3nc4ccccc4s3)CC2)cc1)c1ccccc1	-23.9%	?
O=C1NC(=O)C2(CCN(c3ccccc3)CC2)C(=O)N1	-4.9%	i
O=C(CN1C(=O)C2CC=CCC2C1=O)NCc1ccc2c(c1)OCO2 (configuration not stated)	-22.1%	·
COc1ccc(C(C)=O)cc1Cn1c(C)c(C(=O)NCc2cccc(Cl)c2)sc1=O	-3.8%	9.3%
Oc1c(Cl)c(Cl)c(Cl)c(Cl)c1Cl	-9.7%&-12.9%	-15.9%
O=C(O)CC(C(=O)O)c1cn(Cc2ccccc2)c2ccccc12 (configuration not stated)	-15.7%	·
C=CCc1cc(/C=N/n2cnnc2)cc(OCC)c1O	-9.8%	-13.4%
Cc1c(NC(=O)CSc2nncn2-c2ccccc2)c(=O)n(-c2ccccc2)n1C	-11.8%	-14.6%
Cc1noc(/C=C/N(C)C)c1S(=O)(=O)N1CCCC(C(=O)NC(C)c2ccccc2)C1 (configuration not stated)	-14.3%	-6.0%
COc1cccc(NC(=O)CN2C(=O)COc3ccc(S(=O)(=O)N4CCOCC4)cc32)c1	-6.5%	-0.9%
COc1cc2c(cc1OC)C1C(=O)c3ccc4c(c3OC1CO2)CC(C(C)C)O4 (configuration not stated)	-28.2%	?
O=C(CSc1ccccc1)NCCCc1ccccc1	-11.6%	i
CCOC(=O)C1(Cc2ccccc2C)CCCN(C(=O)c2cc(C3CC3)[nH]n2)C1 (configuration not stated)	0.0%	-3.8%
CC(=O)Nc1ccc(S(=O)(=O)N[C@@H](C)C(=O)Nc2ccc(N3CCOCC3)cc2)cc1	-5.0%	·
CN(C)C(=O)CCc1ccc2c3c([nH]c2c1)[C@]1(CCc2ccccc2)[C@@H](C(=O)N2CCCCC2)C[C@H](CC(=O)NCCCn2ccnc2)C(=O)N1CC3	0.3%	-8.7%
Nc1nonc1-n1nnc(C(=O)N/N=C/c2ccc(O)cc2)c1COc1ccc(F)cc1	-3.4%[7.34 µM]	-5.9%[7.34 µM]
C[C@H]1CN([C@@H](C)CO)C(=O)CCCn2nncc2CO[C@H]1CN(C)S(=O)(=O)c1ccc(Oc2ccccc2)nc1	-13.1%	i
Cc1cc(-c2ccc(F)cc2)nc2cc(C(N)=O)nn12	-6.3%	·
CCOC(=O)N1CCN(C2CC(=O)N(c3ccc(F)cc3)C2=O)CC1 (configuration not stated)	-14.6%	-8.6%
O=C(COC(=O)CCC1CCCC1)Nc1ccccc1Sc1ccccc1	-9.5%	i
CC(NC(=O)C(=O)N1CCCCC1)C(c1cccs1)N1CCN(c2ccccc2F)CC1 (configuration not stated)	-6.4%[7.34 µM]	-4.8%[7.34 µM]
CCn1nc(C(=O)OCC(=O)N2CC(=O)Nc3ccccc32)c2ccccc2c1=O	6.5%	-2.6%
COc1ccccc1C=NN1C(=O)CSC1=S	8.7%	-12.7%
C/C=C(\C)CN1CCC(n2nccc2NC(=O)CCCc2ccccc2)CC1	-27.3%	-11.4%
Cc1ccc2[nH]c(=O)c(CN(CCc3ccccc3)C(c3nnnn3Cc3ccco3)C(C)C)cc2c1 (configuration not stated)	-7.5%	-17.8%
CCOC(=O)[C@H]1[C@H]2COc3ccc(C)cc3[C@@H]2N2C(=O)CN(C)C(=O)[C@@]12C	6.1%	i
S=C(c1ccc(-c2ccc(Br)cc2)o1)N1CCCCC1	-10.1%	i
CN=c1scc(C)n1/N=C/c1cc(Br)c(O)c(Br)c1	-3.3%	-1.1%
CC(=O)c1cccc(S(=O)(=O)N2CCC(n3nnc4cc(F)ccc43)CC2)c1	-14.5%	-10.3%
COc1ccc(CNC(=O)c2ccc3nc(CCc4ccccc4)oc3c2)cc1OC	-10.1%	-21.1%
O=C1NCCc2onc(-c3ccc(Br)cc3)c21	-10.8%	15.7%
CCOc1ccc(N(C)Cc2cc(=O)oc3ccc(OCC)cc23)cc1	-28.8%	-9.8%
CC1CCc2cc(F)ccc2N1C(=O)c1cnc2sccn2c1=O (configuration not stated)	3.7%	-13.2%
CCOc1cc(C(=O)NC)cc(OCC)c1OCC	-9.6%	-1.3%
O=C1CCC(=O)c2ccc3c4c(ccc1c24)CC3	-2.7%	-14.2%
Cc1ccnc(SCC(=O)n2c3c(c4ccccc42)CC(C)CC3)n1 (configuration not stated)	-10.6%	-16.2%
S=C(Nc1ccc(Cl)cc1)c1nc2ccccc2s1	-17.8%	·
Cc1ncc([N+](=O)[O-])n1CCO	-21.1%&-4.3%	-5.8%&-13.4%
COc1cc(F)c(S(=O)(=O)Nc2c(C)n(C)n(-c3ccccc3)c2=O)cc1OC	-4.4%	-5.0%
O=C(CSc1ncnc2c1oc1ccccc12)NCc1ccco1	-29.2%	-17.8%
O=C(c1ccccc1)N1CCN(C(=O)c2ccc([N+](=O)[O-])cc2)CC1	-21.1%	-13.0%
CC(=O)OC1C(O)C2=C3C4(C)C1C(C)(C)C(=O)CC4C3(O)C(OC(C)=O)C1(CC1C)C2=O (configuration not stated)	?	?
COc1ccc(-n2c(SCC(=O)N3CCc4ccccc43)nc3c([nH]c4ccccc43)c2=O)cc1	1.3%	1.7%
(further entries)
SMILES	Vaccinia Venus	VACV mCherry inh
CC(=O)N1CCCc2ccc(NS(=O)(=O)c3ccc(F)cc3F)cc21	-8.9%	-14.7%
C=CCN(C(=O)Cn1c(C(=O)OC)cc2oc(C)cc21)c1ccccc1	-12.2%	?
O=C(NCC(c1ccc2c(c1)OCO2)N1CCOCC1)C(=O)Nc1ccccc1 (configuration not stated)	-6.6%	-4.2%
O=C(O)CC(Cn1cnnn1)c1ccccc1 (configuration not stated)	-0.7%	9.7%
CCCOc1ccc(NC(=O)CC2C(=O)N(CC)C(=S)N2CCNC(C)=O)cc1 (configuration not stated)	-21.3%	i
Cc1ccc(-n2c(SCC(=O)NC3CCCCC3)nc3c(c2=O)SCC3)cc1	-17.5%	-4.7%
O=C(NC(c1ccccc1)c1ccc2ccccc2n1)C1CCN(Cc2ccc(Cl)c(Cl)c2)CC1 (configuration not stated)	-18.9%	0.4%
COC(=O)c1sc2nc(N3CCCCC3)c3c(c2c1N)CCCC3	?	-19.2%[1.46 µM]
Cc1cc([N+](=O)[O-])ccc1NC(=O)C[n+]1ccc(N(C)C)cc1	-12.4%	-3.2%
CC(=O)c1nn(-c2ccccc2)cc1C(=O)c1ccc(C)cc1	-10.8%[7.34 µM]	i[7.34 µM]
COCCN1C(=O)CN(S(C)(=O)=O)CC1(C)C(=O)Nc1ccc2c(c1)OCCO2 (configuration not stated)	-7.3%	-4.5%
CCOC(=O)c1ccc(N2C(=O)c3[nH]nc(-c4ccccc4)c3C2c2ccc(CC)cc2)cc1 (configuration not stated)	?	?

Profiles as entered above. Values in the order: Vaccinia Venus | VACV mCherry inh
CC1CCc2cc(F)ccc2N1C(=O)c1cnc2sccn2c1=O (configuration not stated) is listed with 3.7% | -13.2%
O=C1NCCc2onc(-c3ccc(Br)cc3)c21 is listed with -10.8% | 15.7%

(further entries)
SMILES	Vaccinia Venus	VACV mCherry inh
Cc1oc(-c2cc(F)ccc2F)nc1CN1CCN(c2cnccn2)CC1	-0.4%	-4.2%
CN(C)C=NC(=O)c1cc2c(n(-c3ccccc3)c1=O)CC(C)(C)CC2=O	-2.6%	1.1%
O=C(c1ccc2nc(N3CCCCC3)sc2c1)N1CCN(Cc2ccc3c(c2)OCO3)CC1	-24.9%	-6.4%
C=CCNc1ncnc2c1ncn2[C@H]1CN(CCOC)C[C@@H](CO)O1	4.1%	-2.5%
O=C(COC(=O)CC1CCCC1)Nc1ccc(Cl)cc1	-3.6%	-16.5%
Fc1ccc(-n2ncc3c(Nc4ccc5c(c4)OCCO5)ncnc32)cc1	-9.3%	-12.9%
Cn1cc(CN2CCN(CCO)CC2)c(-c2ccc(Oc3ccccc3)cc2)n1	-9.1%	-11.0%
COc1ccc(C(=O)NCc2cn3cccc(C)c3n2)cc1OC	-8.0%	i
O=C(NN1C(=O)/C(=C/C=C/c2ccccc2)SC1=S)c1ccncc1	18.6%	i
CC1CC(C)CN(S(=O)(=O)N2CCCC(C(=O)NCCc3ccc(Cl)cc3)C2)C1 (configuration not stated)	-21.1%	-23.9%
Cc1cccc(C(C(=O)NC2CCCC2)N(C(=O)c2csnn2)C2CCCC2)c1 (configuration not stated)	6.5%	-3.4%
Cc1cccc(/C(N)=N/OC(=O)COc2ccc(Cl)c(C)c2)c1	1.5%	-7.8%
O=C(c1cc(-c2cccc(Cl)c2)on1)N1CCOCC1	4.8%	i
Cc1ccn2c(CN(C)CCn3nc(C)cc3C)c(C(=O)N3CCCCCC3)nc2c1	-4.2%	-4.9%
Nc1nc2ccccc2[nH]1	-3.1%	i
COc1ccc2nc(Nc3ccccc3OC)sc2c1	-20.5%	?
COC(=O)CCC(C)C1CCC2C3C(OC(C)=O)CC4CC(O)CCC4(C)C3CC(O)C12C (configuration not stated)	-20.5%	i
OC1CCCN(Cc2ccc3ccc4cccc5ccc2c3c45)C1 (configuration not stated)	?	-17.1%
O=C(Nc1cccc(-c2ccc(N3CCOCC3)nn2)c1)c1cccc(Cl)c1	-5.2%	-1.5%
COC(=O)c1sc2ccccc2c1-n1cccc1C(=O)C(=O)Nc1ccc(Cl)cc1	?	·
COc1cc(OC)cc(C(=O)N2CCC(C(=O)N3CCOCC3)CC2)c1	3.2%	5.1%
CC(C)(O)C#Cc1ccc(C(=O)N2CCN(c3ccc(F)cc3)CC2)cc1	-17.1%	-11.8%
OCC[C@@H]1C[C@@H](O)[C@H](O)[C@@]2(CCCCO2)O1	4.5%	-13.9%
O=C(c1ccccc1)c1ccc(OCCCN2CCCC2)cc1	-14.6%	-13.5%
C=CCNC(=O)NC(=O)COC(=O)c1ccccc1Sc1ccc(C(F)(F)F)cc1[N+](=O)[O-]	-8.4%	-0.9%
O=C(NNc1cccc(Cl)n1)c1ccccc1CC[N+](=O)[O-]	-2.1%	-4.5%

Bioassay records from PubChem.
